Compound activity (PubChem)
CapD inh: inhibitors of Bacillus anthracis CapD enzyme | 140,000 compounds, 0.23% hits | AID 492967 | purified CapD enzyme, fluorescence intensity read-out; stronger effect = lower value; some hits fall short of the stated cut | z-score (test concentration not listed);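 active = z-score under -4 in either of two replicates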;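 also: stock transfer was 100 nL into about 40 µL; score is relative to mean and spread of the plate; one replicate is shown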
AID504770: growth inhibitors of E. coli YBA685 in a screen for V. cholerae RctB (chromosome II replication) inhibitors. E. coli YBA685 rctB-dependent plasmid, OD600 growth, 3 h; stronger effect = lower value. z-score (no concentration beside the values). 130,000 compounds, 0.27% hits;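 active = z-score under -2 on both plates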;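 also: wells of about 30 µL received 100 nL stock; score is relative to mean and SD of the test wells; the first replicate is given; strong numbers were not always called active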
Numbers without * were called inactive; x = no result given. Outcome played no part in choosing rows; overall some 0.41% were active at least once.

SMILES	CapD inh	AID504770
Cc1nn(Cc2ccccc2Cl)c2sc(C(=O)NC(C)(C)C)cc12	x	0.05
COC(=O)c1ccccc1NC(=O)CN1Cc2ccccc2C1=O	0.78	0.85
CCn1nc(C)cc1-c1n[nH]c(=S)n1-c1ccccc1	-0.62	-0.55
Cc1ccc(-c2nnc(N3CCOCC3)c3ccccc23)cc1S(=O)(=O)N1CCN(C)CC1	x	-0.95
O=S1(=O)CCC(c2ccccc2)C1 (stereo not drawn)	x	-0.5
NC(=O)CS(=O)(=O)c1ccccc1	-0.47	0.7
Fc1cccc(NC(=S)NCc2ccc3c(c2)OCO3)c1	1.2	0.25
Cc1ccc(C2=NC3(CCN(C(=O)OC(C)(C)C)CC3)NC2=S)cc1	0.49	-0.35
COC(=O)C1=C(C(=O)OC)SC(=C2C(=S)C(C)(C)N(C(=O)c3ccc(C)cc3)c3cc(OC)ccc32)S1	-0.28	x
COC(=O)c1ccccc1S(=O)c1cccc2cccc(CO)c12 (stereo not drawn)	-0.3	-1.1
O=C(Nc1cc(Cl)cc(Cl)c1)c1snnc1-c1ccccc1	-0.43	x
COc1ccc(Br)cc1/C=C/C(=O)NCC(=O)O	-2.5	1.9
CCN(C(=O)Cn1ncc2c(=O)oc3ccc(C)cc3c21)c1ccccc1	-0.39	0.4
O=S(=O)(NC1CCN(Cc2ccc3ccccc3c2)C1)c1c(F)cccc1F (stereo not drawn)	0.73	x
Cc1ccc(NC(=O)c2c(C)nc3sc(C(=O)NC4CCCC4)c(N)c3c2-c2cccnc2)c(C)c1	-0.16	-0.45
CCOC(=O)CSc1nc(C(C)(C)C)cc(C(F)(F)F)c1C#N	1.9	-0.85
CCOC(=O)N1CCC(n2c(SCC(=O)c3ccccc3)nc3ccccc3c2=O)CC1	21	2.1
Nc1nnnn1N=Cc1ccc(-c2ccc3c(c2)COC3=O)o1	-0.4	0.7
CSc1nc2ccc(S(=O)(=O)N3CCCC3)cc2s1	-0.45	2.9
O=C1C(=Nc2ccc(F)cc2)c2ccccc2N1Cc1ccccc1Cl	0.04	x
COc1ccc(-c2nnc(NC(=O)C3CC3)o2)cc1	x	0.95
COc1ccccc1CN1C(=O)C(=O)N(Cc2c(F)cccc2Cl)C1=O	0.17	x
COc1ccc(-c2nnn(-c3ccc(Cl)cc3Cl)c2N)cc1	-0.54	x
COc1ccc(NC(=O)c2ccc3c(=O)n(CCc4ccccc4)c(SCC#N)nc3c2)cc1OC	0.1	x
N#Cc1ccc(CSc2nc3ccc(Cl)cc3[nH]2)cc1	x	0.85

Among those listed so far, these have fluorine.
SMILES	CapD inh	AID504770
Fc1cccc(NC(=S)NCc2ccc3c(c2)OCO3)c1	1.2	0.25
O=S(=O)(NC1CCN(Cc2ccc3ccccc3c2)C1)c1c(F)cccc1F (stereo not drawn)	0.73	x
CCOC(=O)CSc1nc(C(C)(C)C)cc(C(F)(F)F)c1C#N	1.9	-0.85
O=C1C(=Nc2ccc(F)cc2)c2ccccc2N1Cc1ccccc1Cl	0.04	x
COc1ccccc1CN1C(=O)C(=O)N(Cc2c(F)cccc2Cl)C1=O	0.17	x

Additional compounds follow:
SMILES	CapD inh	AID504770
Nc1cccc(C2=NCCN2)c1	0.34	-0.25
CN1CCc2cc(CN(CC3CCCO3)C(=O)C(C)(C)C)ccc21 (stereo not drawn)	0.025	x
Nc1c(C(=O)Nc2nccs2)sc2nc3c(cc12)CCC3	1.7	x
CN(CC(=O)N1CCc2ccccc21)S(=O)(=O)c1cccs1	0.15	0.85
COc1ccc(/C=C2\N=C(c3ccccc3Br)OC2=O)c(OC)c1OC	-1.2	x
Cc1cc(C)c(C#N)c(SCc2cc(=O)[nH][nH]2)n1	11	0.35
Cc1nn(CC(=O)O)c(=N)s1	x	-0.85
CCOC(=O)CN1CC23C=CC(O2)C(C(=O)NCc2ccc(C)cc2)C3C1=O (stereo not drawn)	-0.52	0.5
N#CC1=C(N)SC(N)=C(C#N)C1CCC1CCCCC1	x	-0.15
CC(=O)N1CCc2cc(S(=O)(=O)CCC(=O)N3CCc4ccccc43)ccc21	-0.36	-0.75
CC(Sc1nc2c(c(=O)n(C)c(=O)n2C)n1Cc1cc2c(cc1Cl)OCO2)C(=O)O (stereo not drawn)	0.49	x
CC(Oc1cc(OC(C)C(=O)O)c2c(c1)oc(=O)c1ccccc12)C(=O)O (stereo not drawn)	x	-0.6
CCCn1nc(C(=O)NC2CCC(C)CC2)ccc1=O (stereo not drawn)	x	1.2
COc1ccc(CN(Cc2ccco2)C(=O)c2cc3ccccc3oc2=O)c(OC)c1	x	-0.5
O=C(Cn1c2ccccc2c2nc3ccccc3nc21)NCCO	0.92	x
COc1ccccc1CNC(=O)CCn1c(=O)c2ccccc2n(Cc2ccc(F)cc2)c1=O	0.045	0.1
Clc1ccc(CSC2=Nc3cc(Cl)ccc3SCC2)c(Cl)c1	-0.49	x
O=S(=O)(c1ccc(SCc2cc3c(cc2Br)OCCO3)nc1)N1CCOCC1	x	-0.7
O=C(NNC(=O)c1ccco1)OCCCc1ccccc1	0.06	x
S=c1n(CN2CCCC2)nc(C2COc3ccccc3O2)n1-c1ccccc1 (stereo not drawn)	x	-1
Cc1cc(NC(=O)CCCO)n[nH]1	-1	-0.4
CCC(=O)N1CCc2cc(S(=O)(=O)CCC(=O)N(C)c3ccc(Br)cc3)ccc21	-0.015	2.6
COC(=O)c1ccc(S(=O)(=O)N2CCN(C)CC2)n1C	0.54	0.25
CCOC(=O)C12CCC(C(=O)OCC)(CC1=O)C(=O)C2	1.2	x
O=C(CC(=O)c1ccccn1)c1ccccn1	-1.1	x

Looked up one by one from the entries so far, 3 records:
SMILES	CapD inh	AID504770
CN1CCc2cc(CN(CC3CCCO3)C(=O)C(C)(C)C)ccc21 (stereo not drawn)	0.025	x
Clc1ccc(CSC2=Nc3cc(Cl)ccc3SCC2)c(Cl)c1	-0.49	x
CCOC(=O)C12CCC(C(=O)OCC)(CC1=O)C(=O)C2	1.2	x

Back to the main list with the 2 entries that preceded the break.
SMILES	CapD inh	AID504770
CCOC(=O)C12CCC(C(=O)OCC)(CC1=O)C(=O)C2	1.2	x
O=C(CC(=O)c1ccccn1)c1ccccn1	-1.1	x
FC(F)(F)c1cccc(NC(=S)NCc2ccco2)c1	-0.41	x
Cc1ccc(C)c(-c2csc(N)n2)c1	-0.24	-0.9
O=[N+]([O-])c1ccc(C2(O)CN(c3ccccc3)C3=[N+]2CCS3)cc1 (stereo not drawn)	-0.14	x
Cc1ccc(-c2nc(I)ccc2O)cc1	28	1.2
Cn1nc(CC(=O)Nc2nc(-c3ccccc3)cs2)c2ccccc2c1=O	-0.17	-0.05
Cc1cccc2c(O)c(/C=C3/C(=O)N(c4ccccc4)NC3c3ccccc3)c(=O)[nH]c12 (stereo not drawn)	5.2	0.5
COC(=O)C(CC(=O)c1ccc(Br)cc1)c1ccccc1 (stereo not drawn)	-0.05	-0.75
CN1CCN(C(=O)c2cc3nc(-c4ccc(Br)cc4)cc(C(F)(F)F)n3n2)CC1	-0.51	x
CNC(C)Cc1ccccc1 (stereo not drawn)	0.15	x
COc1ccc(-c2nn(-c3ccccc3)cc2/C=N/O)cc1	3	-1.4
Cc1ccc(N(CC(O)CN2CCCC2)S(=O)(=O)c2ccccc2)cc1 (stereo not drawn)	-0.15	x
CCCNC(=O)c1ccc2c(c1)C(=O)N(CC(C)C)C2=O	0.02	-0.25
O=C(O)c1ccc(C2Nc3ccccc3C3C=CCC32)cc1 (stereo not drawn)	-7.9*	2.5
C=CCn1c(=S)sc2c(SCC(N)=O)ncnc21	0.8	0.7
Oc1ccc(Cl)cc1Cc1cc(Cl)ccc1O	0.41	0.05
COc1cccc(N/C(SCc2ccccc2Cl)=C(/C#N)C(=O)NCc2cccs2)c1	0.38	x
Cc1ccc(NC(=O)c2c(NC(=O)c3ccc(C)cc3)sc3c2CCCCC3)cc1	-0.66	x
O/N=C(/CN1CCOCC1)c1ccccc1	-1.1	2.4
Cc1ccc(-c2cc(=O)n(-c3nc(C)cc(C)n3)[nH]2)cc1	x	-0.3
CC(C)(C)NC(=O)CSc1nc2ccccc2nc1SCC(=O)NC(C)(C)C	0.99	-0.95
O=C1C=CC(=O)C(Nc2ccccc2)=C1	-0.76	-0.2
CCOC(=O)c1ccc2nc(C(F)(F)F)nc(NCCCN3CCCC3=O)c2c1	87	-0.65
COc1cccc(C(=O)NCCNc2nc3cc(C)cc(C)c3cc2C#N)c1	x	-0.9
Nc1c(C(=O)Nc2ccc(S(N)(=O)=O)cc2)sc2nc(-c3ccccc3)cc(C(F)(F)F)c12	-0.6	x
O=C1CCS(=O)(=O)c2ccc(F)cc21	0.88	x

(continued)
SMILES	CapD inh	AID504770
O=C(NCc1cccs1)C(Cc1ccccc1)n1cccc1 (stereo not drawn)	-1.1	-0.4
COC(=O)Nc1ccc(SCC(=O)c2ccccc2)cc1	x	-0.1
O=C(NCCn1ccc2ccccc21)C1CCCC1	0.32	0.1
Clc1ccc2nc(CSc3nc4ccccc4o3)cn2c1	0.95	x
NC(=O)C(CSC(c1ccccc1)(c1ccccc1)c1ccccc1)NC(=O)NC1CCN(Cc2ccccc2)C1 (stereo not drawn)	0	x
Cc1nn(-c2ccccc2)c(N)c1-c1ccccc1	-0.44	x
O=C(Nc1ccc(CSc2ccccc2)cc1)c1ccc(F)cc1F	0.1	x
Cc1cccc(C=Nc2ccc3[nH]ncc3c2)c1O	x	-0.05
CC(=O)Nc1ccc2c(c1)C1C=CCC1C(c1cccc(Cl)c1Cl)N2 (stereo not drawn)	0.31	1.8
O=C(/C=C/c1cc2c(cc1Br)OCO2)N1CCN(Cc2ccccc2)CC1	2	0.45
COc1ccc(C(=O)OCC(=O)NCc2ccc3c(c2)OCO3)cc1S(=O)(=O)N1CCOCC1	x	-0.2
ONC=Nc1ccccc1Sc1nc2cc(Cl)ccc2s1	1.1	0.15
CC(N)C(=O)NC(Cc1ccccc1)C(=O)O (stereo not drawn)	76	x
Cc1cc(Cl)ccc1OC(C)C(=O)N=Nc1c(O)n(CO)c2ccccc12 (stereo not drawn)	x	-0.65
COC(=O)c1sc2ccccc2c1NC(=O)c1cc(Cl)sc1Cl	0.7	-0.9
O=C(COc1ccccc1)Nc1ccccc1	0.09	-1.1
Cc1n[nH]c(=O)c2noc(/C=C/c3ccc(C(F)(F)F)cc3)c12	0.18	0.25
Cc1ccc2[nH]c(=O)c(CN3CCOCC3)c(-c3ccccc3)c2c1	9.5	1.8
O=C(NCc1ccco1)c1ccc2c(=O)n(-c3ccc(F)cc3)c(SCC(=O)N3CCCC3)nc2c1	0.77	x
Cc1cc(=O)[nH]c(SCc2ccc(C(=O)Nc3nccs3)cc2)n1	11	0.1
CSc1nnc(-c2csc(S(=O)(=O)Nc3cccc(Cl)c3)c2)n1C	0.68	-0.65
O=C(Nc1nnc(-c2ccc3c(c2)CCCC3)o1)c1ccccc1	-0.23	-0.05
Oc1ccccc1CNc1ccc(C2CCCCC2)cc1	0.12	1.6
COc1ccc(N2C(=O)C(N3C(=O)c4c(Cl)c(Cl)c(Cl)c(Cl)c4C3=O)C2c2cccc(Br)c2)cc1Cl (stereo not drawn)	-0.07	x
CCOC(=O)c1c(C)n(S(=O)(=O)c2ccc(Cl)cc2)c2ccc(NS(=O)(=O)c3ccc(Cl)cc3)cc12	-0.81	x

The listing continues.
SMILES	CapD inh	AID504770
COc1ccc(NC(=O)c2cc3nc(-c4ccccc4)cc(C(F)(F)F)n3n2)c(OC)c1	0.19	x
NS(=O)(=O)c1ccc(CNC(=O)OCCCCc2ccc([N+](=O)[O-])cc2)cc1	-0.1	x
CCC1CCCCN1CCCNC(=O)C1CCCN(S(=O)(=O)N2CC(C)CC(C)C2)C1 (stereo not drawn)	-1.6	-0.1
O=S(=O)(c1ccccc1)n1nccc1-c1cc(-c2ccccc2)no1	-0.21	-0.6
CC(C)(C)c1csc(Cc2ccc([N+](=O)[O-])cc2)n1	-0.21	x
N#Cc1ccc(/C=N/NC(=O)c2cnn(-c3ccc([N+](=O)[O-])cc3)c2C(F)(F)F)cc1	-0.36	x
CC(=O)Nc1ccc(N=Cc2cccc3ccccc23)cc1	-0.71	-0.4
CCOc1ccc(NC(=S)N(C)Cc2nccn2C)cc1	x	-0.3
O=C1CSC(c2cccnc2)N1Cc1ccc2c(c1)OCO2 (stereo not drawn)	0.17	-0.55
O=c1[nH]cc(S(=O)(=O)NCc2ccccc2)c(=O)[nH]1	x	-0.1
CC1(C)CC(=O)C(C(C2=C(O)CC(C)(C)CC2=O)c2ccc(C(C3=C(O)CC(C)(C)CC3=O)C3C(=O)CC(C)(C)CC3=O)cc2)C(=O)C1 (stereo not drawn)	0.41	x
NC(=Nc1cc(Cl)cc(Cl)c1)N1CCN(Cc2ccccc2)CC1	-0.015	-0.9
COc1ccc(-n2cc(-c3ccccc3)nc2SCC(=O)c2ccccc2)cc1	-0.49	0.85
CC(=O)Nc1cc2cc(NC(=O)C(F)(F)F)ccc2oc1=O	0.74	-1
CCOC(=O)N1CCC(n2c(SCC(=O)Nc3ccc(C)c(Cl)c3)nc3ccccc3c2=O)CC1	0.37	1.3
CCOc1ccccc1C(=O)N(c1ccccc1)C1C=CS(=O)(=O)C1 (stereo not drawn)	0.44	-0.15
Cc1ccc(S(=O)(=O)c2nc(-c3ccccc3)oc2Sc2nc3ccccc3[nH]2)cc1	x	1.4

Single records, from the list above:
O=C1CSC(c2cccnc2)N1Cc1ccc2c(c1)OCO2 (stereo not drawn) reads CapD inh = 0.17; AID504770 = -0.55
CC(C)(C)c1csc(Cc2ccc([N+](=O)[O-])cc2)n1 reads CapD inh = -0.21; AID504770 = x
